Bioassay records deposited in PubChem BioAssay by several laboratories.
eIF4H FP inh: human eIF4H binding inhibitors, primary screen, translation initiation inhibitor project, biochemical, uHTS, fluorescence polarization | Eukaryotic translation initiation factor 4H (Homo sapiens), Q15056 | eIF4H fluorescence polarization binding assay | inhibition, % at 35 µM | 290,000 compounds, 0.94% hits;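 active = 50% or more with normal probe brightness, or confirmed in later tests; inconclusive = above 50% with abnormal brightness, or retests that disagree; inactive = below 50% or failed in later tests; about a fifth of its hits are not listed in these tables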;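 note: calls also rest on retests at 20 µM and on dose response follow-up; 0% = protein and probe with vehicle and 100% = probe without protein; strong numbers were not always called active; many hits fall short of the cut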
CSC inhib: cancer stem cell viability inhibitors, primary screen, luminescence; 300,000 compounds, 1.1% hits; inhibition, % at 7.5 µM; cancer stem cell-like cells viability;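 active = mean at 75% or more and at least half the replicates too; inconclusive = mean and replicates disagree; tested in HMLE shEcad cells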;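 note: 0% = median of negative and 100% = median of positive control wells; the first replicate is given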
HIV Env fusion: inhibitors of HIV-1 Env-driven cell-cell fusion, primary screen, HeLa-JRFL effector, CEM21 target cells, luciferase; 360,000 compounds, 1.1% hits; AID 651610, 2012; inhibition, % at 12.3 µM;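 active = mean replicate inhibition score of at least 50 and every replicate individually at or above 50; inconclusive = only one of the two criteria met; inactive = mean below 50 and not all replicates reaching 50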;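 note: 0% = plate neutral controls and 100% = maraviroc near 300 nM; one replicate is shown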
MT1-MMP act inh: blockers of MT1-MMP proenzyme processing, primary screen, HT1080 RFP-PRO-GFP cells, GFP/RFP fluorescence; Matrix metalloproteinase-14 (Homo sapiens), P50281; GFP/RFP ratio fluorescence, overnight; percent of plate control window, DMSO zero; GFP/RFP ratio change, % at 20 µM; 360,000 compounds, 0.061% hits;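 active = GFP/RFP ratio change of at least 30% with cell ATP level not reduced by more than half and red fluorescence within 50% of control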; note: strong numbers were not always called active
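Material: RFP-PRO-GFP reporter HT1080 cells. Dosing: single-point 20 µM compound, 1% DMSO. Controls: DMSO and RFP-L50D-GFP cell wells. Timing: cells overnight before dosing, compound overnight, 37 °C, 5% CO2. Measure: GFP/RFP fluorescence ratio.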
PABP polyA inh: PABP poly(A) RNA binding inhibitors, primary screen, biochemical, fluorescence polarization, uHTS | Polyadenylate-binding protein 1 (Homo sapiens), P11940 | inhibition, % at 35 µM | 290,000 compounds, 1% hits;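 active = 50% or more with normal probe brightness, or confirmed in later tests; inconclusive = above 50% with abnormal brightness, or retests that disagree; inactive = below 50% or failed in later tests; about a fifth of its hits are not listed in these tables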;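 note: calls also rest on retests at 20 µM and on dose response follow-up; controls were probe without protein and protein plus probe with vehicle; some compounds called inactive have numbers as strong as hits; many hits fall short of the cut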
Target sequence (P11940 whole entry, looked up): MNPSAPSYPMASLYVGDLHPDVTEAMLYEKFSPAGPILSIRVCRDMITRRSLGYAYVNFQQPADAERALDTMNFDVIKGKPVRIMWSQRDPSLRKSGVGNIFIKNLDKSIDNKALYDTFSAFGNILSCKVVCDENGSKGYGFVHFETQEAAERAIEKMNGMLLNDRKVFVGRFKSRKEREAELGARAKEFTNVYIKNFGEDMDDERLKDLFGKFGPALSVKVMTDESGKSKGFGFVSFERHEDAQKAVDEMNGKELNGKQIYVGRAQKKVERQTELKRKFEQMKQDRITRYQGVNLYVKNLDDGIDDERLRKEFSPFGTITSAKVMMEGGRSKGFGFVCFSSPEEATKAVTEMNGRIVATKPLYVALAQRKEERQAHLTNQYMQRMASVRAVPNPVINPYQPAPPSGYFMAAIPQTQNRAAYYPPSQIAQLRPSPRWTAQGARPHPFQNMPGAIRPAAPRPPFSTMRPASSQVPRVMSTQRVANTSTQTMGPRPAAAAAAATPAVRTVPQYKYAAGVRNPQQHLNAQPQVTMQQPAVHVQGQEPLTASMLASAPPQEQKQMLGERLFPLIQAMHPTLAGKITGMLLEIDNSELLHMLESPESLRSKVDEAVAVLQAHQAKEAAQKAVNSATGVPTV
UUG fidelity: modulators of yeast start codon fidelity, primary screen, whole organism, S. cerevisiae, single point, plate reader. activity score, % at 18.7 µM. S. cerevisiae UUG-firefly luciferase reporter, luminescence/redox ratio. 350,000 compounds, 0.13% hits;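 active = replicate mean at a twofold rise or more, about +100% in these data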;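 note: firefly luciferase made from a UUG start codon reports start codon fidelity; reporter light over untreated wells divided by growth signal over untreated wells; some hits fall short of that in this replicate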
Rce1 inh: yeast Rce1p protease inhibitors, primary screen, biochemical, fluorescence, cell-free homogeneous | yeast membranes, quenched prenylated peptide cleavage fluorescence | 290,000 compounds, 0.27% hits | calls only | AID 2563, 2010;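 active = fall in fluorescence gain of 50% or more versus controls, with final raw signal at or below 3038400; inconclusive = same 50% fall but final raw signal above 3038400; inactive = fall in fluorescence gain under 50%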;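 note: plate controls were neutral control wells for no effect and wells lacking membranes for full effect; tested at 10 µM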
eIF4H FP inh retest: recorded beside eIF4H FP inh, whose call it bears; inhibition, %; compound at 20 µM; confirmation average;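 mean of two retest wells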
PABP polyA inh retest: further read-out of PABP polyA inh, marked with its call; inhibition, %; compound at 20 µM; confirmation repeats;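 mean of two retest wells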
MT1-MMP act inh RFP: recorded beside MT1-MMP act inh, whose call it bears; RFP signal change, %; measured here: RFP expression control read;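 0 = vehicle wells; hits needed this value within 50% of zero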
An asterisk follows results filed as active; i = inactive; ? = inconclusive; nt = no result given; + = active, no number. An excerpt; count on the stated rates, not on these rows.

SMILES	eIF4H FP inh	CSC inhib	HIV Env fusion	MT1-MMP act inh	MT1-MMP act inh RFP	PABP polyA inh	UUG fidelity	Rce1 inh	others
CC1CC(C)CN(C(=O)C(C)N(C)CC(=O)Nc2ccc(Cl)cc2)C1 (stereo not drawn)	8	nt	13	0	-3	4	nt	i
COc1ccc(NC(=O)C2CC2)cc1OC1CCCC1	0	-5	nt	0	-1	9	-17	i
Cc1nc(NC(=O)COC(=O)CNC(=O)c2ccco2)c(Cl)cc1Cl	nt	-15	-6	-1	6	nt	-13	nt
Cc1ccc(C2=N/C(=C\N(C)C)C(=O)O2)cc1	-13	-3	-75	7	2	-7	-10	i
O=C(c1cccs1)N1CCN(C/C=C/c2ccccc2)CC1	4	-5	nt	2	1	4	-12	i
Cc1ccc(S(=O)(=O)N2CCOC2CNC(=O)C(=O)NCc2ccco2)cc1 (stereo not drawn)	-2	-14	16	5	5	16	6	i
Cc1cc(C(=O)N2CCCCCC2)cs1	2	nt	nt	7	3	-2	nt	i
CCN1C(=O)C(=O)c2cc(C)ccc21	nt	nt	-17	2	4	nt	-15	nt
Cc1nc2sc(C(=O)OC(C)C)c(N)c2c(C)c1C	35	-12	-21	6	1	?	nt	i
CC(=O)NC12CC3CC(C1)CC(C(=O)NCc1ccc(C)cc1)(C3)C2	5	-8	4	-4	3	-13	-20	i
O=C(CC1Oc2ccccc2NC1=O)NCCc1ccccc1 (stereo not drawn)	-8	-2	-12	1	3	0	-9	i
Cc1cc(C)cc(-n2c(C)cc(C(=S)N3CCOCC3)c2C)c1	6	-1	nt	0	-1	0	nt	i
Cn1cccc1C(=O)OCC(=O)c1cc2ccccc2o1	2	-7	-55	-5	2	-3	-6	i
CCCCNC(=O)N1CCOCCOCCN(C(=O)NCCCC)CCOCC1	7	4	nt	-2	6	-7	33	i
COC(C(=O)NC1CCCCCCC1)c1ccccc1 (stereo not drawn)	-2	-1	3	-1	3	6	2	i
CSC(=NC#N)N1CCN(c2ccccn2)CC1	3	-3	7	0	4	1	nt	i
O=C(NC(=S)NCc1ccccc1)c1ccccc1Br	-6	1	-1	0	0	-4	-24	i
CC(OC(=O)Cc1n[nH]c(=O)c2ccccc12)C(=O)Nc1cc(Cl)cc(Cl)c1 (stereo not drawn)	nt	4	9	-1	2	nt	-9	i
COc1cc(C)ccc1S(=O)(=O)NC(=O)C1(C)CCN1C(=O)Cc1ccc(C(C)(C)C)cc1 (stereo not drawn)	nt	nt	-42	-4	4	nt	-6	nt
COc1cc(C2C(C#N)=C(N)Oc3cc(C)n(CC4CCCO4)c(=O)c32)cc2c1OCO2 (stereo not drawn)	-1	nt	nt	0	0	-9	-4	i
O=[N+]([O-])c1ccc(CN2CCOCCOCCN(Cc3ccc([N+](=O)[O-])cc3)CCOCC2)cc1	-1	2	nt	-3	-5	-11	5	i
O=C(Cc1ccc(S(=O)(=O)N2CCOCC2)s1)NNC(=O)c1ccccc1Cl	nt	nt	4	10	-1	nt	-5	nt
COc1ccc(-c2nnc(SCC(=O)Nc3sc4c(c3C#N)CCC4)n2CC2CCCO2)cc1 (stereo not drawn)	6	nt	nt	7	-6	2	-27	nt
CC(=O)C1=C(O)C(=CC=Cc2ccccc2)OC1=O	nt	nt	-26	-5	-1	nt	-11	nt
Cc1cc(C)cc(OC(=O)C23CCC(C)(C(=O)O2)C3(C)C)c1 (stereo not drawn)	-9	-13	-2	9	0	-13	-10	i
Continuation.
SMILES	eIF4H FP inh	CSC inhib	HIV Env fusion	MT1-MMP act inh	MT1-MMP act inh RFP	PABP polyA inh	UUG fidelity	Rce1 inh	others
O=c1/c(=C\c2ccc3c(c2)OCO3)sc2n1CCCN=2	-13	10	-326	3	1	-11	-34	i
Nc1nc2nonc2nc1N	0	-14	7	-3	6	9	-17	i
O=C(NCCO)C(=O)NCC1OCCCN1S(=O)(=O)c1cc(F)ccc1F (stereo not drawn)	-4	-12	9	-2	0	-2	-7	i
CCN(CC)C(=O)CSc1nc2ccccc2c(=O)n1CCC(=O)NCCc1ccc(OC)c(OC)c1	0	-5	-14	3	-3	-4	-17	i
O=C(Nc1ccccc1N1CCCCC1)c1ccc(-c2ccc(Cl)cc2)o1	6	nt	nt	2	-14	-12	nt	i
O=C(NC(Cc1ccccc1)C(=O)O)/C(=C\c1ccc(F)cc1)NC(=O)c1ccco1 (stereo not drawn)	-18	-1	7	0	2	4	8	i
CC(=O)Nc1cccc(NC(=O)CSc2ncc(-c3ccc(Cl)cc3)n2Cc2ccco2)c1	2	22	-88	-8	-19	14	-6	nt
CCN(CC(=O)Nc1ccc(NC(C)=O)cc1)C(=O)/C=C/c1ccc(S(=O)(=O)N2CCCCCC2)cc1	-4	1	2	-7	0	4	-4	i
Cc1cccc(NC(=O)CNC(=O)c2cccs2)n1	nt	-8	-17	3	3	nt	-8	i
Nc1nnc(-c2ccccc2Cl)s1	-8	-5	nt	6	1	17	-14	i
CCN(Cc1ccccc1)c1c(C(=O)O)cnc2c1cnn2C	-1	-3	3	-5	-2	-5	nt	i
COc1ccc(/C=C2\SC(=O)N(CCC(=O)Nc3ccccc3)C2=O)cc1OC	5	-5	-20	-11	-16	-17	nt	i
O=C(CSc1ncnc2scc(-c3ccc(Cl)cc3)c12)NCc1ccc2c(c1)OCO2	2	nt	nt	-2	-8	-6	-9	i
COc1ccc(OCCC(=O)OCC(=O)NC(=O)NC(C)(C)C)cc1	-15	-11	nt	7	4	-5	3	nt
Cc1cccc(-c2c(O)cc(=O)[nH]c2Cl)c1	60	4	-24	2	5	0	-25	nt	eIF4H FP inh retest=25;PABP polyA inh retest=42
OC[C@@H]1CN(Cc2ccco2)C[C@H](n2cnc3c(NC4CC4)ncnc32)O1	nt	nt	8	6	7	nt	-16	nt
CNc1cc(-c2cnn(CC(C)C)c2)ncn1	nt	nt	-20	2	5	nt	-3	nt
C[C@]1(CC/C(=C/CO)CO)[C@H](CO)CC[C@@]23COC(=O)C2=CCC[C@@H]31	nt	-5	nt	-2	-1	nt	-27	nt
CCOc1ccc(S(=O)(=O)N(CC(=O)NCc2cccnc2)c2ccc(C)cc2)cc1	-1	-7	-8	3	4	-5	0	i
O=C(O)[C@@H](c1ccccc1)N1Cc2ccccc2C1=O	2	-13	-9	18	-1	7	3	i
Cc1ccccc1Cn1ccc(NC(=O)c2nn3cccnc3c2Cl)n1	9	1	-32	5	-1	-4	nt	i
CC(=O)C[C@@H](O)CC(=O)[C@H]1OC(=O)[C@H](C)C/C=C\Cc2ccccc21	nt	nt	?	-3	6	nt	24	nt
Cc1ccc(OC(C)C(=O)N2CCc3ccccc32)cc1 (stereo not drawn)	-10	-2	nt	3	-1	-10	-19	i
COc1ccc(N(C(=O)c2cccc([N+](=O)[O-])c2)S(=O)(=O)c2ccc3c(c2)n(C)c(=O)n3C)cc1	0	10	10	3	-2	1	-22	i
Nc1ncnc2c1ncn2[C@@H]1O[C@H](CNC(=O)[C@H](N)Cc2cccnc2)[C@@H](O)[C@H]1O	nt	nt	4	0	4	nt	-1	nt

Four records drawn at random from the list so far, as already listed:
SMILES	eIF4H FP inh	CSC inhib	HIV Env fusion	MT1-MMP act inh	MT1-MMP act inh RFP	PABP polyA inh	UUG fidelity	Rce1 inh	others
CC(=O)C[C@@H](O)CC(=O)[C@H]1OC(=O)[C@H](C)C/C=C\Cc2ccccc21	nt	nt	?	-3	6	nt	24	nt
O=C(Nc1ccccc1N1CCCCC1)c1ccc(-c2ccc(Cl)cc2)o1	6	nt	nt	2	-14	-12	nt	i
Cc1ccccc1Cn1ccc(NC(=O)c2nn3cccnc3c2Cl)n1	9	1	-32	5	-1	-4	nt	i
OC[C@@H]1CN(Cc2ccco2)C[C@H](n2cnc3c(NC4CC4)ncnc32)O1	nt	nt	8	6	7	nt	-16	nt

The listing picks up, repeating the 7 entries before the break.
SMILES	eIF4H FP inh	CSC inhib	HIV Env fusion	MT1-MMP act inh	MT1-MMP act inh RFP	PABP polyA inh	UUG fidelity	Rce1 inh	others
CCOc1ccc(S(=O)(=O)N(CC(=O)NCc2cccnc2)c2ccc(C)cc2)cc1	-1	-7	-8	3	4	-5	0	i
O=C(O)[C@@H](c1ccccc1)N1Cc2ccccc2C1=O	2	-13	-9	18	-1	7	3	i
Cc1ccccc1Cn1ccc(NC(=O)c2nn3cccnc3c2Cl)n1	9	1	-32	5	-1	-4	nt	i
CC(=O)C[C@@H](O)CC(=O)[C@H]1OC(=O)[C@H](C)C/C=C\Cc2ccccc21	nt	nt	?	-3	6	nt	24	nt
Cc1ccc(OC(C)C(=O)N2CCc3ccccc32)cc1 (stereo not drawn)	-10	-2	nt	3	-1	-10	-19	i
COc1ccc(N(C(=O)c2cccc([N+](=O)[O-])c2)S(=O)(=O)c2ccc3c(c2)n(C)c(=O)n3C)cc1	0	10	10	3	-2	1	-22	i
Nc1ncnc2c1ncn2[C@@H]1O[C@H](CNC(=O)[C@H](N)Cc2cccnc2)[C@@H](O)[C@H]1O	nt	nt	4	0	4	nt	-1	nt
Cc1ccc(Cl)c(OCCCN(C)Cc2ccccc2)c1	59	7	-10	-1	-1	38	-14	i	eIF4H FP inh retest=1;PABP polyA inh retest=8
C=CCC[C@H](Cc1ccc(F)cc1)C(=O)OC[C@@H](Cc1c[nH]c2ccccc12)NC(=O)[C@@H](CC=C)CC(=O)N[C@@H](CO)Cc1ccccc1	nt	15	-2	-21	-14	nt	2	nt
CCOc1ccc2nc(NCCCNC(=O)c3cc(OC)c(OC)c(OC)c3)c(C#N)cc2c1	3	17	14	-1	-3	4	1	i
COc1ccc(Nc2nc(C)c3ccccc3n2)cc1	4	0	nt	-2	-3	14	-2	i
Cn1c(=O)n(CC(N)=O)c2ccccc21	0	-7	nt	-1	2	2	-10	i
O=C(O/N=C\c1ccc(N2CCCCC2)c([N+](=O)[O-])c1)c1cccc(C(F)(F)F)c1	7	-8	nt	3	-6	28	nt	+
O=C(c1ccc(F)cc1)N1CCC(C(=O)N2CCN(S(=O)(=O)c3cccc(F)c3)CC2)CC1	nt	-9	8	-3	0	nt	-15	nt
CS(=O)(=O)c1ccc(S(=O)CC(=O)Oc2ccc(Cl)cc2)c([N+](=O)[O-])c1 (stereo not drawn)	0	47	nt	nt	nt	-8	nt	i
OC(CNC1CCCC1)COCCOc1ccc(Br)cc1 (stereo not drawn)	-1	-5	0	2	3	9	nt	i
CCOc1ccc(N(C(=O)c2snc(C(N)=O)c2N)C(C(=O)NC2CCCC2)c2ccncc2)cc1 (stereo not drawn)	-8	-3	-21	-2	-1	-2	-14	i
C/C(=N\NC(=O)c1cc(-c2cccs2)nc2ccccc12)c1ccccn1	-2	136*	-30	1	-2	11	-34	i
Cn1cccc1Cc1nnc(SCC(=O)Nc2ccc(F)cc2)n1-c1ccc(F)cc1	-10	-2	-14	3	2	-15	-15	i
